Compound activity as filed in PubChem BioAssay.
RGS16-Gao HTS: modulates binding between human RGS16 and Galphao | binding response (% of control), % at 10 µM | bead-based flow cytometry RGS16-Galphao binding, fluorescence; actives lie on both sides | O15492+P09471 | hit rate 0.38% among 220,000;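 active means below 25% or above 175%, edge rows of some plates excepted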;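 further: Galphao activated by GDP with aluminum fluoride before binding; 100% = wells without compound and 0% = beads without RGS; some results beyond the cut were filed as inactive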
HSV replic up: HSV replication enhancement; HSV replication augmentation in cells, fold increase; maximum fold increase; hit rate 0.005% among 220,000; AID 1956;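 active means peak rise of 1.5-fold or more in the series; inconclusive means self-fluorescent or not available for retest; tested in PC3 cells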;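 further: first round at 10 µM; read as green reporter fluorescence; hits show the peak of a series up to 25 µM; 1 = signal of infected wells without compound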
INS promoter inh: TRM-6 insulin promoter activity inhibition. hit rate 0.9% among 130,000. inhibition, % at 2 µM. TRM-6 cells (human fetal islet line), insulin promoter-eGFP reporter, imaging; reporter expression induced with tamoxifen. AID 1273;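 active means inhibition above the mean plus 3 SD, with well images judged a real hit on visual review, cut at about 60% in these data, passing the limit was not always enough; inconclusive means inhibition over the cutoff but images rejected on review; inactive means inhibition not above the cutoff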
PKD1 kinase inh: PKD1 (human) kinase inhibition; Q15139; PKD1 kinase fluorescence polarization assay; inhibition, %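 (about 10 µM by stock and volumes)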; hit rate 0.056% among 200,000; AID 797;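 active means inhibition of 50% or more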;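 further: controls were vehicle for no effect and a reference inhibitor for full effect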
Target sequence (Q15139 whole entry, looked up): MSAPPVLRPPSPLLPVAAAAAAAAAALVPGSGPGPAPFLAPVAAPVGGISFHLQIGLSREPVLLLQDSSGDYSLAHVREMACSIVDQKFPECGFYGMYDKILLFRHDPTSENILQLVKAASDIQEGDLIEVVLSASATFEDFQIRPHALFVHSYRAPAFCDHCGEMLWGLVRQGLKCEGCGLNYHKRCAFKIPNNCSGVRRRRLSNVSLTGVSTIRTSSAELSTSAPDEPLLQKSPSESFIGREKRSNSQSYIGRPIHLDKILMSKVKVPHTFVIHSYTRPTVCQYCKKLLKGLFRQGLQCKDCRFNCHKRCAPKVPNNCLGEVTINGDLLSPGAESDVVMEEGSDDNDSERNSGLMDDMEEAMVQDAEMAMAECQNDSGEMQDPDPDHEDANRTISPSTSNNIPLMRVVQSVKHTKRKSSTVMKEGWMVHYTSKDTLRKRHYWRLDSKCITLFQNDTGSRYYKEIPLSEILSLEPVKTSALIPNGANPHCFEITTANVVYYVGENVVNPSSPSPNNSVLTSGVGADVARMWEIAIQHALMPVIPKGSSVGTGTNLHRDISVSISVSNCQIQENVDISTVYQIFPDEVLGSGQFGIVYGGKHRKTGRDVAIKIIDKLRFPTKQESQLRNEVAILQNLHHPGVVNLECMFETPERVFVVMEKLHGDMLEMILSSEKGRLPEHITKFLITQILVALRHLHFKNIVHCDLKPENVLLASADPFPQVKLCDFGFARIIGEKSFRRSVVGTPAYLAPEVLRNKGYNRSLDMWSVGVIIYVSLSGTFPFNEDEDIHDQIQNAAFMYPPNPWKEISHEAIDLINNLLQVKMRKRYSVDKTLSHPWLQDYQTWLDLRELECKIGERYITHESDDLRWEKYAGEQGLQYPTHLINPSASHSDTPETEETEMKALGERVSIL
GALR2 ag: activates the human galanin receptor 2; activation, %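 (tested at 5 µM)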; hit rate 0.48% among 140,000; O43603; GALR2-expressing cells, agonist activation read-out;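 active means above mean plus 3 SD of all compounds, about 5% in these data, not always enough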;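 further: 0% = vehicle buffer wells and 100% = reference agonist at full effect; tested in CHO reporter cells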
INS promoter inh cell count: further read-out of INS promoter inh, marked with its call; normalized cell count, %; measured here: cell count, toxicity; reference of the scale not given here;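 cells exposed to compound for 48 h; stained nuclei by imaging scaled within each plate; lower means fewer cells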
HSV replic up primary fold: recorded beside HSV replic up, whose call it bears; fold increase; compound at 10 µM; measured here: primary screen fold increase 10 uM; tested in PC3 cells;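 GFP signal in the first replicate; 1 = infected wells without compound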
Active calls of the source: *; i = inactive; ? = inconclusive; . = not tested or not shown.

A first look:
SMILES	RGS16-Gao HTS	HSV replic up	HSV replic up primary fold	INS promoter inh	INS promoter inh cell count	PKD1 kinase inh	GALR2 ag
Cc1ccc(Nc2nc3ccccc3nc2Nc2c(C)n(C)n(-c3ccccc3)c2=O)cc1	112	i	0.91	14	110	3	-2.2
COc1cc(-c2[nH]ncc2CN2CCN(c3cccc(C)n3)CC2)cc(OC)c1OC	101	i	1	.	.	.	.
O=[N+]([O-])c1cccc(Nc2c3ccccc3nc3ccccc23)c1	110	i	0.93	15	90	-4	.
O=C(/C=C/c1ccc([N+](=O)[O-])s1)N1CCCCC1	101	i	0.89	-328	39	-4	.
COc1ccc2c(c1OC)C(=O)N1c3ccccc3C(=O)N(c3ccccc3F)C21 (configuration not stated)	97	i	0.87	.	.	-13	-1.2
O=C1S/C(=C/c2ccc(N3CCOCC3)o2)C(=O)N1Cc1ccc(F)cc1	98	?	.	-6	86	-9	-1.6
O=C(O)c1ccc(N2C(=O)/C(=C/c3ccc(-c4ccc([N+](=O)[O-])cc4)o3)C=C2c2ccccc2)cc1	100	i	1.3	-155	82	-2	.
COc1cc(/C=N/NC(=O)c2cccs2)ccc1OCc1ccccc1	98	i	0.8	-58	87	-1	-2.2
CC1C(=O)Nc2ccccc2N1C(=O)c1ccccc1 (configuration not stated)	105	i	1	13	115	-5	.
Cc1nn(-c2ccccc2)c(C)c1C(=O)OCC(=O)N1CC(=O)Nc2ccccc21	90	i	0.87	93*	86*	14	-2.2
CCOC(=O)CC(=O)CSCC(=O)Nc1ccc(C)cc1	36	i	0.94	-3	109	2	-1.3

The list itself, previewed entries included:
SMILES	RGS16-Gao HTS	HSV replic up	HSV replic up primary fold	INS promoter inh	INS promoter inh cell count	PKD1 kinase inh	GALR2 ag
Cc1ccc(Nc2nc3ccccc3nc2Nc2c(C)n(C)n(-c3ccccc3)c2=O)cc1	112	i	0.91	14	110	3	-2.2
COc1cc(-c2[nH]ncc2CN2CCN(c3cccc(C)n3)CC2)cc(OC)c1OC	101	i	1	.	.	.	.
O=[N+]([O-])c1cccc(Nc2c3ccccc3nc3ccccc23)c1	110	i	0.93	15	90	-4	.
O=C(/C=C/c1ccc([N+](=O)[O-])s1)N1CCCCC1	101	i	0.89	-328	39	-4	.
COc1ccc2c(c1OC)C(=O)N1c3ccccc3C(=O)N(c3ccccc3F)C21 (configuration not stated)	97	i	0.87	.	.	-13	-1.2
O=C1S/C(=C/c2ccc(N3CCOCC3)o2)C(=O)N1Cc1ccc(F)cc1	98	?	.	-6	86	-9	-1.6
O=C(O)c1ccc(N2C(=O)/C(=C/c3ccc(-c4ccc([N+](=O)[O-])cc4)o3)C=C2c2ccccc2)cc1	100	i	1.3	-155	82	-2	.
COc1cc(/C=N/NC(=O)c2cccs2)ccc1OCc1ccccc1	98	i	0.8	-58	87	-1	-2.2
CC1C(=O)Nc2ccccc2N1C(=O)c1ccccc1 (configuration not stated)	105	i	1	13	115	-5	.
Cc1nn(-c2ccccc2)c(C)c1C(=O)OCC(=O)N1CC(=O)Nc2ccccc21	90	i	0.87	93*	86*	14	-2.2
CCOC(=O)CC(=O)CSCC(=O)Nc1ccc(C)cc1	36	i	0.94	-3	109	2	-1.3
Cc1cccc(C)c1NC(=O)CSc1nnc(C)n1-c1ccccc1	94	i	0.95	12	79	-10	-1.2
COc1ccccc1-c1cc(C(=O)NCc2ccccc2)no1	100	i	0.95	.	.	-2	-1.7
Cc1ccc(-n2c(SCC(=O)NCC3CCCO3)nc3c(c2=O)SCC3)cc1 (configuration not stated)	112	i	0.87	35	96	-11	-2.2
Cc1cccc(-c2cc3nc4c(c(N5CCOCC5)n3n2)CCCC4)c1	92	i	1	-33	119	-3	1.1
C/C(CC(=O)Nc1ccc2c(c1)OCO2)=N\NC(=O)C(c1ccccc1)c1ccccc1	15*	i	0.96	29	38	-1	-2.1
Cc1nnc(-c2ccc(Oc3ccc(C)c(C)c3)c([N+](=O)[O-])c2)o1	100	i	0.87	-21	45	0	-0.9
C=CCOc1cccc(C2C(C(=O)c3ccco3)=C(O)C(=O)N2Cc2ccncc2)c1 (configuration not stated)	107	i	0.66	i	56	0	-0.5
CCOC(=O)c1cnc2cc(-c3ccc(Cl)cc3)nn2c1N	104	i	0.94	-17	88	-4	-4.0
C=CCNC(=O)CC(C)C(CCCCC)C(=O)O (configuration not stated)	73	i	1	-18	65	-8	-2.4
CN(c1ccccc1)c1ccc(/C=C/[N+](=O)[O-])cc1	90	i	0.59	.	.	6	5.5*
CSc1ccccc1NC(=O)NCCCl	103	i	1	.	.	2	.
CN(C)C(=O)COC(=O)c1ccc(S(=O)(=O)NCc2ccco2)cc1	107	i	0.89	.	.	.	.
Cc1cc(C)nc(SCC(=O)Nc2ccc(S(=O)(=O)N3CCCCC3)cc2)n1	108	i	0.85	-7	140	0	-2.9
CC(=O)c1cc(N2CCOCC2)ccc1[N+](=O)[O-]	101	i	0.99	.	.	-3	.
CN1C(=O)c2ccccc2Sc2ccc(NC(=O)N3CCOCC3)cc21	99	i	1	.	.	2	.
CN1CCN(c2ccccc2NC(=O)c2ccc(Br)o2)CC1	110	i	1	-331	98	41	-1.4
Cc1cc(=O)oc2cc(OCC#N)ccc12	114	i	1	.	.	-2	-0.8
COc1cccc2c(=O)c3ccoc3n(C)c12	112	i	0.7	.	.	-3	.
Cc1ccccc1Cn1c(-c2cncs2)nc2ccccc21	101	i	1.1	0	96	1	-1.1
COCCCN(C(C)=O)c1nc(-c2ccccc2)cs1	100	i	0.93	14	148	5	0.4
O=C1c2cccnc2C(Nc2ccc(Br)cc2)N1Cc1cccs1 (configuration not stated)	103	i	0.98	.	.	-7	.
COc1ccc(-n2c(CNC(=O)c3cccs3)n[nH]c2=S)cc1	96	i	1	-15	116	-5	.
Cc1cc2c(cc1C)NC(c1nc3ccccc3[nH]1)C1=C(CC(C)(C)CC1=O)N2 (configuration not stated)	101	.	.	-36	201	-7	-1.5
O=C(COc1ncnc2c1cnn2-c1ccccc1)Nc1ccc(S(=O)(=O)N2CCCCC2)cc1	100	i	0.82	7	65	-6	-1.5
Cc1nc2ccccc2n1CCc1nc2c3ccccc3nc(SCC(=O)NCc3ccco3)n2n1	100	i	1	7	132	3	8.7*
Cc1ccc(/C=C/C(=O)N2CCN(c3cccc(C(F)(F)F)c3)CC2)cc1	96	i	1	.	.	-4	-0.2
O=[N+]([O-])c1nn(-c2ccc3c(c2)OCCO3)n(O)c1=NCCCO	95	i	0.94	2	78	0	0.1
O=C(Nc1ccc(Cl)cc1Cl)c1n[nH]c(Cn2cncn2)n1	101	i	0.85	.	.	2	-2.6
Cc1ccc(OCCCCn2ccnc2)c(Cl)c1	101	i	0.88	73*	60*	-8	-3.1
C/C(CC(=O)Nc1ccc(Br)cc1)=N\NC(=O)Cc1csc(N)n1	96	i	1	.	.	.	.
CC(=O)Nc1ccc(OCC(=O)NC(C)c2ccc(F)cc2)cc1 (configuration not stated)	103	i	0.96	17	152	1	.
O=C(CN(C(=O)CCC(=O)Nc1nccs1)c1ccc(F)cc1)NCc1ccco1	101	i	0.96	.	.	1	-1.7
Cc1ccnc(NC(=O)Cn2cc([N+](=O)[O-])cn2)c1	103	i	1.1	47	132	3	.
CC1CN=C(N(Cc2ccccc2)C(=O)Nc2ccccc2)S1 (configuration not stated)	99	i	1.1	11	87	1	-1.4
CC1(C)CC1C(=O)Nc1ccc([N+](=O)[O-])cc1Br (configuration not stated)	143	i	1.1	35	118	-6	-1.6
O=C(Nc1ccccc1N1CCOCC1)c1cnccn1	95	.	.	-7	98	-5	-1.3
O=C(O)c1ccc(S(=O)(=O)c2ccc3c(c2)C(=O)N(NC(=O)c2cccnc2)C3=O)cc1	108	i	1	.	.	.	.
O=C(C1CC1)N1CCN(S(=O)(=O)c2ccc3c(c2)OCCO3)CC1	102	i	1	46	96	-5	.
O=C(Nc1ccc(-c2csnn2)cc1)C1CC1	102	i	0.84	.	.	.	.
O=C(Nc1ccc(F)cc1F)c1ccc(-n2cccn2)nc1	103	i	1.1	13	144	-12	.
O=C(CCl)NC(Cc1ccccc1)c1ccccc1 (configuration not stated)	107	i	0.8	25	98	9	.
Cc1ccc(SCc2cc(-c3ccc(Cl)cc3)no2)cc1	104	.	.	.	.	2	-1.1
CCOC(=O)c1c(C)nc2cc(C)cc(C)n12	104	i	0.9	0	90	-2	.
CC(=O)NC(=S)Nc1ccc(S(=O)(=O)N2CCOCC2)cc1	106	i	0.88	0	74	-1	.
COC(CNC(=S)Nc1ccc([N+](=O)[O-])cc1)OC	111	i	1.1	11	176	2	0.8
COc1ccc2c(c1OC)C(=O)N(c1cccc(C(F)(F)F)c1)C2	104	i	0.93	.	.	-6	-0.3
O=C(Nc1nnc(-c2ccc(Cl)cc2)o1)Nc1ccccc1Cl	100	i	0.78	-12	107	6	-2.1
O=C(CCNC(=O)c1ccco1)Nc1ccc(SC(F)F)cc1	98	i	1	.	.	0	.
Cc1cccc(NC(=O)N2CCC(n3nnc4cc(C)ccc43)CC2)c1	112	i	1	0	94	-2	.

Next section.
SMILES	RGS16-Gao HTS	HSV replic up	HSV replic up primary fold	INS promoter inh	INS promoter inh cell count	PKD1 kinase inh	GALR2 ag
CN(C)S(=O)(=O)c1ccc(N2CCCC2)c(C(=O)NCc2ccc(Cl)cc2)c1	103	i	0.65	13	99	-1	-2.0
CC(C)C(=O)Nc1nc(-c2ccccc2)ns1	114	i	1	-229	122	7	0.1
O=C(NN1C(=O)C2C(C1=O)C1C=CC2C12CC2)c1cccnc1 (configuration not stated)	100	i	0.95	-57	119	-5	.
O=C1CSC(c2ccccc2F)N1c1ccccc1 (configuration not stated)	117	i	1	-387	31	-11	-1.5
CCN(CC)S(=O)(=O)c1ccc2c(c1)nc(CCC(=O)Nc1cccc(C(F)(F)F)c1)n2CC	99	i	0.79	-34	259	3	-1.4
Cc1cc(C(=O)Nc2ccc(S(=O)(=O)Nc3onc(C)c3C)cc2)cs1	105	i	0.87	-13	108	-2	-3.5
CCOC(=O)c1c(NC(=O)CSc2nc3ccccc3c(=O)n2-c2ccccc2)sc(C(C)=O)c1C	94	i	0.99	-163	113	-4	-0.9
Cc1cccc(NC(=S)N2CCN(c3ccc(F)cc3)CC2)c1	107	i	0.93	.	.	2	.
CC(C)NS(=O)(=O)c1ccc(CCC(=O)N2CCC(C(N)=O)CC2)cc1	105	i	0.87	13	110	6	.
O=C(c1ccc(F)c(S(=O)(=O)N2CCOCC2)c1)N(c1ccccc1)c1ccccn1	102	i	0.98	.	.	-4	.
COc1ccccc1-c1cn[nH]c1-c1ccc(OCc2ccccc2)cc1O	102	i	0.88	.	.	.	.
CCOC(=O)C1CCCN(C(=O)C2CCN(S(=O)(=O)c3cccs3)CC2)C1 (configuration not stated)	103	i	1.1	-11	156	-5	-1.7
COc1ccccc1CNCC(=O)Nc1ccc(C(F)(F)F)cc1	107	i	0.96	.	.	.	.
CCN(CC)C(=O)CSc1nc(O)c(Cc2ccccc2)c(=O)n1-c1ccccc1C	102	i	0.89	.	.	.	.
CCn1c(SCC(=O)NCc2cccs2)nnc1-c1ccco1	104	i	0.96	.	.	-1	-0.2
CCOC(=O)C1=C(COc2ccc(F)cc2Cl)NC(=O)NC1c1cc(C)ccc1C (configuration not stated)	102	i	0.91	.	.	8	-0.7
C=CCOC(=O)C1=C[C@@H](c2ccc(Br)cc2)C[C@@H](OCc2ccc(CO)cc2)O1	94	i	0.88	.	.	2	.
COc1ccc(CCN2C(=O)C3C4CC(C5C(C(=O)N/N=C\c6ccc(Cl)cc6)=NOC45)C3C2=O)cc1OC (configuration not stated)	99	i	0.96	16	96	-2	-2.3
CCCCN(C(=O)c1c(C)[nH]c(C(=O)OCC)c1C)c1ccccc1	96	i	0.88	-117	58	-5	-1.7
COc1ccc(C(=O)NC(=S)Nc2ccc(N3CCOCC3)c(Cl)c2)cc1[N+](=O)[O-]	22	i	0.96	15	54	-6	-0.8
O=[N+]([O-])/C(=C\Nc1ccccc1Cl)S(=O)(=O)c1ccccc1	78	i	1	-39	95	-8	-1.8

Random draw from the library. Share with any hit: about 1.3%.
